gsp ag: gsp mutant agonism | gsp mutant cells, cAMP HTRF, 30 min; control for the full effect not named in the record | Potency, µM (highest dose often 76.9 µM), inactives show at the highest dose activation (cAMP increase), hits mostly activators | 340,000 compounds, 0.13% hits | AID 624287; active = well fitted activation curve with a large enough effect; inconclusive = small, poorly fitted or top-dose-only effect, or another doubt; inactive = no such curve, though single readings can be large or run the other way; cell line not stated here;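 also: phosphodiesterase inhibitor Ro 20-1724 added with compounds to block cAMP breakdown; potency is read from the fitted curve at half-maximal effect; nearly all actives have a fitted effect of over 60% in size; about a fifth of the inactives were tested at one dose only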
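Cells in DMEM/10% FBS with G418 were pretreated with compounds in DMSO plus […] (300 uM stock) for 30 min at 37C. cAMP was measured by HTRF (cAMP-d2 plus anti-cAMP antibody-K) after 30 min at room temperature.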
gsp antagonist: antagonists of gsp mutant (McCune-Albright syndrome). gsp-mutant cells, cAMP HTRF, 30 min; control for the full effect not named in the record. Potency, µM (doses to about 76.9 µM), without a hit: at the top dose activity change, negative = inhibition, actives largely listed as inhibitors. 340,000 compounds, 0.4% hits. AID 624288; active = falling curve of any shape with a large fitted effect; inconclusive = falling curve, mostly with a smaller effect; inactive = flat or rising curve; cell line not stated here;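 also: intracellular cAMP measured with PDE inhibitor Ro 20-1724 present during compound exposure; potency is read from the fitted curve at half-maximal effect; % is scaled to controls: 0 for no effect and ±100 for the full control effect; nearly all actives have a fitted effect of over 65% in size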
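Cells in G418 medium, seeded 16-24 h, 37C; buffer exchange to DPBS + 1 mM CaCl2, 0.5 mM MgCl2, 0.05% BSA; cpds in DMSO + […] (300 uM stock), 30 min 37C; HTRF cAMP detection.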
TRPML1 blocker: human mucolipin-1 channel inhibition; Q9GZU1; TRPML1-inducible cells, Ca2+ dye fluorescence, FDSS; active compounds read low; inhibition of EC80 agonist-evoked calcium signal; activity change, negative = inhibition, % (concentration not given with the values); 390,000 compounds, 0.02% hits; AID 624415; in the data active means activity change below about -50%; inconclusive means about -30% to -50%; inactive means above about -30%;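 also: stimulus is agonist 54-4 at its EC80 concentration; % is scaled to controls: 0 for no effect and ±100 for the full control effect; the text of the record puts the active cut at -80%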
Target sequence (Q9GZU1 whole entry, looked up): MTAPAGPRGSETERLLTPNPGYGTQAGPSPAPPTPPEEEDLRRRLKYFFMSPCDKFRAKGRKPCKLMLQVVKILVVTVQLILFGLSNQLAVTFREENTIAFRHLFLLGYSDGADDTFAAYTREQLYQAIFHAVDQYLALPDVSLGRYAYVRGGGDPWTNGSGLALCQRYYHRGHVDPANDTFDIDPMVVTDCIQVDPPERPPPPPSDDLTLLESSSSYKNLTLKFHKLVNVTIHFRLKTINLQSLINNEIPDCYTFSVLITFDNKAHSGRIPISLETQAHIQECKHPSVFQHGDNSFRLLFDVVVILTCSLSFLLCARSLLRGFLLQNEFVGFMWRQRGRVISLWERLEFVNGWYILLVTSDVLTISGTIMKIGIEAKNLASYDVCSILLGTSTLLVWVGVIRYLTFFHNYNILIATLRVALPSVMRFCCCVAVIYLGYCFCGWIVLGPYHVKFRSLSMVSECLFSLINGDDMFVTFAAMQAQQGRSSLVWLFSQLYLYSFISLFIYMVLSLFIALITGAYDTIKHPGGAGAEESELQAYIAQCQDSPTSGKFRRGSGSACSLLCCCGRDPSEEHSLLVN
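Tet-induced TRPML1-DL cells loaded with Ca8 no-wash calcium dye were read kinetically on FDSS. Compound addition was followed by EC80 agonist 54-4 (4 uM final); inhibition was read over 110 s.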
Menin-MLL FL inh: inhibitors of human menin-MLL interaction, wild-type MLL peptide; 290,000 tested, under 10 active; Fluorescence polarization, fluorescein-MLL peptide displacement from menin; FP activity change, % at 61.4 µM; inconclusive = falling polarisation curve, or a change in total fluorescence; inactive = total fluorescence flat and polarisation flat or rising; no compound was filed as active; the % refers to the polarisation; negative = inhibition;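 also: % of control where 0% means no effect; inhibitors lower the polarisation; unlabelled MLL peptide was the positive control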
TRPML1 agonist: human mucolipin-1 channel agonism | AID 624414 | TRPML1-expressing cells, Ca2+ dye fluorescence, FDSS; host cell line not named in the record; reference of the full effect not given here | Q9GZU1 | activation, % (no concentration beside the values) | 410,000 compounds, 0.12% hits; in the data active = activation above about 50%; inconclusive = about 30% to 50%; inactive = below about 30%; also: 0% is about no effect; the text of the record puts the active cut at 80%
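Cells: TRPML1-DL, 1X Tet inducer, ~16 h at 37 degrees C/5% CO2. Dye: ABD Ca8 no-wash + quencher, 45-90 min RT. Read: 10 s baseline, compound add, 110 s agonist phase; 54-4 EC80 (4uM final), 110 s antagonist phase.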
ClpP mod: qHTS Assay for Activators of ClpP; ATP-dependent Clp protease proteolytic subunit (Bacillus subtilis (strain 168)), P80244; AID 651965, 2013; purified B. subtilis ClpP, FRET peptide cleavage, 20 min; 340,000 compounds, 1.9% hits; Potency, µM (series often up to 57.5 µM), inactives show at the highest dose activity change, negative = active; active = well fitted falling curve with a large enough effect; inconclusive = small, poorly fitted or top-dose-only effect; inactive = no such curve, though single readings can be large or run the other way; also: potency is read from the fitted curve at half-maximal effect; the source files actives as falling curves though it sought activators and does not explain the sign; nearly all actives have a fitted effect of over 65% in size; many hits overshoot -100%
Target sequence (P80244 whole entry, looked up): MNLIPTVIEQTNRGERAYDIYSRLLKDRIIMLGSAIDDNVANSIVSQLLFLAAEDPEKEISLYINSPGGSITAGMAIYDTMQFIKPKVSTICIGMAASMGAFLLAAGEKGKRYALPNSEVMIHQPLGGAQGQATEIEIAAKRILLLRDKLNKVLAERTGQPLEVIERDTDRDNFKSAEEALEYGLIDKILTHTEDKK
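Buffer: 100 mM Tris/HCl pH8, 100 mM KCl, 0.05% low protease BSA, 2.5% glycerol, 0.01% Tween-20. ClpP 10 microg/mL final; 20 min RT; delta FRET normalized to ADEP and DMSO controls.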
An asterisk follows results filed as active; ? = inconclusive; / = no result given; [ ] = remark or other dose. An unsorted share of the library (roughly 2.1% active in at least one column).

SMILES | gsp ag | gsp antagonist | TRPML1 blocker | Menin-MLL FL inh | TRPML1 agonist | ClpP mod
Cc1ccc(-c2nnc(SCC(=O)N/N=C/c3c(C)nn(-c4ccccc4)c3C)n2-c2ccc(C)cc2)cc1 | -36%[inhibitor] | -15% | 16 | 1.7 | 3.4 | 0.5%
COc1cc(-c2cc(C(=O)O)c3c(OC)c(OC)c(OC)cc3n2)ccc1O | 22% | -7% | 27 | 3.5 | -0.4 | -14%
CC(=O)N/C(=C/c1ccc2c(c1)OCO2)C(=O)NCCO | -20% | 9% | -9 | ? | -0.2 | -8.6%
CC(C)Cc1nc2oc3c(N4CCN(CCO)CC4)ncnc3c2c2c1CCCC2 | -32% | 18% | 8 | 2.3 | -0.8 | 1.1%
Cc1ccc(Cl)cc1-n1ncc2c(NC3CCCCCC3)ncnc21 | / | / | 35 | / | 1.9 | -4.5%
CCN1CCN(c2nc3c(c(=O)[nH]c(=O)n3C)n2Cc2ccccc2)CC1 | ? | -2% | -4 | -1.6 | 0.1 | -3.5%
c1ccc2c(Nc3nncs3)c3ccccc3nc2c1 | -1% | -3% | 1 | -0.3 | 0.4 | -9.5%
CCc1ccc(OC(=O)c2sc3ncn(Cc4cccc(F)c4)c(=O)c3c2C)cc1 | / | / | -4 | / | 0.0 | -2.7%
CC(C)C[C@H]1CN([C@@H](CC(C)C)CN2CCC[C@@H]2CN2C(=S)NC[C@@H]2Cc2ccc(O)cc2)C(=S)N1CCc1ccccc1 | / | / | -9 | / | 0.3 | -1.9%
Nn1cnnc1N/N=C/c1ccccc1C(F)(F)F | -26% | 9% | 66 | 0.1 | 1.6 | -1.2%
CCOC(=O)c1ccc(NS(=O)(=O)c2c(N)n(C)c(=O)n(C)c2=O)cc1 | / | 5% | -2 | / | 0.2 | -0.2%
O=C(Nc1ccc(N2CCC(N3CCCCC3)CC2)c(C(=O)O)c1)c1ccccc1 | / | / | 2 | / | -0.6 | 1.2%
Cn1cc(SCC(=O)NCCc2ccccc2)c2ccccc21 | 3% | -3% | 22 | 2.8 | 3.6 | -0.4%
Cc1nc2c(cc1C#N)C(=O)c1ccccc1-2 | 10%[15.4 µM] | -6% | 6 | 1.6 | 1.0 | /
C=CCSc1nnc(-c2ccccc2NC(C)=O)c(=O)[nH]1 | -16% | ? | -5 | 1.4 | -0.4 | 1.1%
Cc1ccccc1-c1ccccc1CN1[C@@H](C(C)C)COCCS1(=O)=O | / | -16% | -6 | / | 0.8 | 2.8%
CCOC(=O)c1ccccc1NC(=O)COC(=O)CCNS(=O)(=O)c1ccccc1 | -8% | -14% | -2 | / | 1.8 | -14%
Cc1cc(OCC(=O)NNC(=S)NC(=O)c2cccs2)ccc1Cl | 11% | -10% | 14 | / | 5.0 | 0.1%
Cc1ccc(S(=O)(=O)N/N=C/c2cccs2)cc1 | -17% | -7% | -16 | -6.2 | 4.1 | -0.6%
COc1ccc(-c2nnc(SCC(=O)Nc3ccccc3C)o2)cc1OC | / | / | -15 | / | -0.9 | -3.8%
COc1ccc(S(=O)(=O)N(C)C[C@H]2Oc3ccc(NC(=O)Cn4cnnn4)cc3C(=O)N([C@H](C)CO)C[C@@H]2C)cc1 | / | 11% | -16 | / | -0.2 | 0.3%
Cc1ccc(S(=O)(=O)N2CCN(C(=O)c3c(-c4ccccc4)noc3C)CC2)c(C)c1 | ? | -13% | -17 | -2.8 | 0.5 | /
Cc1cccc(N2CCN(C(=O)Nc3ccc(F)cc3)CC2C)c1 (configuration not stated) | / | / | -7 | / | 2.5 | 2.0%
Cc1ccc(C)c(S(=O)(=O)c2c(N)n(/N=C/c3ccco3)c3nc4ccccc4nc23)c1 | 6% | -15% | 4 | ? | 0.8 | 7.9µM*
Cc1ccc(/C=N/NC(=O)CNC(=O)COc2ccccc2)cc1 | -29% | 12% | -9 | 4.9 | 2.0 | -1.3%
COc1cc(OC)c(OC)cc1CN1CCc2nc(N3CCN(c4ncccn4)CC3)ncc2C1 | / | / | -5 | / | 0.0 | -3.2%
Cc1nc2ccccc2c(=O)n1-c1ccc(F)c(NC(=O)c2cccs2)c1 | 5%[15.4 µM] | -6% | 4 | / | 1.2 | /
Cc1cc(NC(=O)c2ccc3c(c2)C(=O)N(CC(C)C)C3=O)no1 | -41%[inhibitor] | 3% | 0 | -1.0 | 1.5 | 1.9%
O=C(Nc1nnc(SCc2ccc(F)cc2)s1)C1=COCCO1 | -19% | -13% | 17 | / | 4.2 | -4.2%
O=C1CCN=C(Nc2ccc(F)cc2)N1Cc1ccccc1 | 28% | ? | 46 | 4.2 | 0.3 | 0.4%
NCCCN1CCOCC1 | 4% | 0% | 3 | 4.5 | 0.0 | 1.2%
O=C(C[C@@H]1C/C=C\C[C@H](Cc2ccc(F)cc2)C(=O)OC[C@H]2CCCN2C1=O)N[C@H](CO)Cc1ccccc1 | / | -1% | -6 | / | -0.1 | 1.6%
CC1=C(C(=O)N2CCOCC2)CC(CC(=O)NCC2CCCCC2)C(=O)N1CCC1=CCCCC1 (configuration not stated) | -35%[inhibitor] | / | 0 | / | -0.5 | -1.6%
COc1cccc(NC(=O)c2ccnc(N3CCC(C(=O)NCc4ccccc4OC)CC3)c2)c1 | ? | -17% | -2 | -0.1 | -0.9 | 4.0%
COc1ccc(CCN(C)C(=O)c2cccc(S(=O)(=O)N3CCN(c4ccc(F)cc4)CC3)c2)cc1OC | -12% | -13% | -5 | / | 0.1 | -1.3%
Cc1ccc(NC(=O)c2c(NC(=O)c3ccccc3)sc3c2CCC3)cc1 | / | / | -12 | / | 1.3 | 1.5%
Cc1ccc(C)c(NC(=O)CCCn2c(C)c3cnn(-c4ccccc4)c(=O)c3c2C)c1 | / | / | -4 | / | -0.4 | -0.9%
Nc1c(C(=O)c2ccc(F)cc2)oc2ccccc12 | 0% | -7% | 7 | 2.4 | 0.4 | 1.4%
Cc1ccccc1NC(=O)Cc1nc(COC(=O)CNC(=O)c2ccc(Cl)cc2Cl)cs1 | -2% | / | 0 | / | 0.9 | -0.2%

Ordered by SMILES length (descending): part of the list above
SMILES | gsp ag | gsp antagonist | TRPML1 blocker | Menin-MLL FL inh | TRPML1 agonist | ClpP mod
O=C(C[C@@H]1C/C=C\C[C@H](Cc2ccc(F)cc2)C(=O)OC[C@H]2CCCN2C1=O)N[C@H](CO)Cc1ccccc1 | / | -1% | -6 | / | -0.1 | 1.6%
COc1ccc(CCN(C)C(=O)c2cccc(S(=O)(=O)N3CCN(c4ccc(F)cc4)CC3)c2)cc1OC | -12% | -13% | -5 | / | 0.1 | -1.3%
CC1=C(C(=O)N2CCOCC2)CC(CC(=O)NCC2CCCCC2)C(=O)N1CCC1=CCCCC1 (configuration not stated) | -35%[inhibitor] | / | 0 | / | -0.5 | -1.6%
Cc1ccc(C)c(NC(=O)CCCn2c(C)c3cnn(-c4ccccc4)c(=O)c3c2C)c1 | / | / | -4 | / | -0.4 | -0.9%
COc1cc(OC)c(OC)cc1CN1CCc2nc(N3CCN(c4ncccn4)CC3)ncc2C1 | / | / | -5 | / | 0.0 | -3.2%
Cc1nc2ccccc2c(=O)n1-c1ccc(F)c(NC(=O)c2cccs2)c1 | 5%[15.4 µM] | -6% | 4 | / | 1.2 | /
Cc1ccc(NC(=O)c2c(NC(=O)c3ccccc3)sc3c2CCC3)cc1 | / | / | -12 | / | 1.3 | 1.5%
O=C(Nc1nnc(SCc2ccc(F)cc2)s1)C1=COCCO1 | -19% | -13% | 17 | / | 4.2 | -4.2%
O=C1CCN=C(Nc2ccc(F)cc2)N1Cc1ccccc1 | 28% | ? | 46 | 4.2 | 0.3 | 0.4%
Nc1c(C(=O)c2ccc(F)cc2)oc2ccccc12 | 0% | -7% | 7 | 2.4 | 0.4 | 1.4%
NCCCN1CCOCC1 | 4% | 0% | 3 | 4.5 | 0.0 | 1.2%
